Source: PubChem BioAssay
FGF22 binding: FGF22 (human) thermal shift binding. Q9HCT0. recombinant FGF22 thermal shift, SYPRO orange fluorescence; percent of sucrose octasulfate shift, DMSO zero. calls only at 9.99 µM. 340,000 tested, 1.5% active. AID 651658;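 active = melting point raised past a set limit in the mean and every replicate; inconclusive = no clear call; three in four hits are not shown here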
Target sequence (Q9HCT0 whole entry, looked up): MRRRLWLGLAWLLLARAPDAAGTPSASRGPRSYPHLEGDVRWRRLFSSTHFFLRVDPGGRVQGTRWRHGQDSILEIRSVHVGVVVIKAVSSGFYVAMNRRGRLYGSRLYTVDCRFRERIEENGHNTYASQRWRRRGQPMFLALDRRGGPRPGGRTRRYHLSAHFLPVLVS
rRNA inh HTS: inhibits bacterial ribosomal RNA function over humanized ribosomes. E. coli WT GFP vs humanized-ribosome RFP mutants, fluorescence, 24 h; stronger effect = lower value; DMSO median 0, no signal -100. GFP signal change (wild-type ribosome), % (test concentration not listed). 350,000 tested, 1.6% active;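 active = significant combined selectivity score with lowered wild-type GFP, culture density cut under 30%, mutant RFP and density less affected; inactive = any of these conditions unmet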; also: one replicate is shown; some compounds called inactive have numbers as strong as hits
AF4-AF9 inh: MLL-AF4/AF9 protein interaction inhibition | 350,000 tested, 0.47% active | AlphaScreen, biotin-AF4 peptide binding to FLAG-AF9 | P42568 | inhibition, % at 10 µM;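 active = every replicate reaching a set inhibition limit, whatever the replicate mean, cut at about 25% in these data; inconclusive = mean inhibition reaches that limit but some replicates miss it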;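 also: 0% = plate neutral control median and 100% = total signal loss; the record names both 10 and 1 µM as test concentration; the first replicate is given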
Target sequence (P42568 whole entry, looked up): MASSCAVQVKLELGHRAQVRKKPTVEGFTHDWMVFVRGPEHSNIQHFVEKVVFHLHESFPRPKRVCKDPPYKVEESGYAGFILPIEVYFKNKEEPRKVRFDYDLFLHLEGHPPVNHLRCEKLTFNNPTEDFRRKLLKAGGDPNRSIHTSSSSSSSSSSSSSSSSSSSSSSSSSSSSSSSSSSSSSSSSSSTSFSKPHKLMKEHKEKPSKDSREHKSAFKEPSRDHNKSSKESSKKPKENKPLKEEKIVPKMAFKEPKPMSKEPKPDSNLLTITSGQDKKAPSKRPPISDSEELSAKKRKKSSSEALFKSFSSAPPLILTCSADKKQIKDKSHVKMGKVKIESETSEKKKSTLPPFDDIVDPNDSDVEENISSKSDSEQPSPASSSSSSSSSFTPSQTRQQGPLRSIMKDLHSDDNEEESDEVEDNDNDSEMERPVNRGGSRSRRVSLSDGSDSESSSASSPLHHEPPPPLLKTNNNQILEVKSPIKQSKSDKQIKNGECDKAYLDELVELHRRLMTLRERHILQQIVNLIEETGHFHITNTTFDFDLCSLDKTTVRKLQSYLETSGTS
rRNA inh HTS OD600: recorded beside rRNA inh HTS, whose call it bears; OD600 change, %; measured here: OD600 growth;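 optical density of the mix in the first replicate; 0 = DMSO median and -100 = no signal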
rRNA inh HTS RFP: second read-out of rRNA inh HTS, no call of its own (marks repeat the call); RFP signal change, %; measured here: RFP humanized mutant strains;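 first replicate; 0 = DMSO median and -100 = no signal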
An asterisk follows results filed as active. An excerpt; count on the stated rates, not on these rows.

Results for C[C@H]1CN([C@@H](C)CO)C(=O)c2c(c3ccccc3n2C)-c2ccccc2CO[C@H]1CN(C)C(=O)Nc1cccc(Cl)c1Cl ?
FGF22 binding: inactive; rRNA inh HTS: 0; AF4-AF9 inh: 0.8; rRNA inh HTS OD600: 3; rRNA inh HTS RFP: -2.2

What do the screens show for `Cc1ccccc1S(=O)(=O)N1[C@@H](C#N)[C@@H](c2ccc(-c3ccccc3)cc2)[C@@H]1CO`?
FGF22 binding: inactive; rRNA inh HTS: -6; AF4-AF9 inh: 0.3; rRNA inh HTS OD600: -14; rRNA inh HTS RFP: -2.0

How did CC(=O)N(C)C[C@@H]1Oc2cc(C#Cc3cccc(F)c3)ccc2S(=O)(=O)N([C@H](C)CO)C[C@@H]1C do in these assays?
FGF22 binding: inactive; rRNA inh HTS: -1; AF4-AF9 inh: 0.3; rRNA inh HTS OD600: -15; rRNA inh HTS RFP: 8.3

What do the screens show for `O=C(N[C@@H]1CC[C@H](CCNC(=O)c2cnccn2)O[C@H]1CO)c1ccc2c(c1)OCO2`?
FGF22 binding: inactive; rRNA inh HTS: 1; AF4-AF9 inh: -0.7; rRNA inh HTS OD600: 7; rRNA inh HTS RFP: -1.6

What do the screens show for `CCOc1ccc(Cl)cc1-c1cc(C(=O)NCc2ccccc2)[nH]n1`?
FGF22 binding: inactive; rRNA inh HTS: -22; AF4-AF9 inh: -13; rRNA inh HTS OD600: -34; rRNA inh HTS RFP: 3.5

How did Cc1noc(C)c1S(=O)(=O)N(C)C[C@@H]1OCCCC[C@H](C)Oc2ccc(NC(=O)Cc3ccccc3)cc2C(=O)N([C@H](C)CO)C[C@@H]1C do in these assays?
FGF22 binding: inactive; rRNA inh HTS: 0; AF4-AF9 inh: 0.2; rRNA inh HTS OD600: 0; rRNA inh HTS RFP: 1.4

Results for COCC(=O)N(C)C[C@@H]1Oc2ncc(-c3ccccc3F)cc2C(=O)N([C@H](C)CO)C[C@@H]1C ?
FGF22 binding: inactive; rRNA inh HTS: 3; AF4-AF9 inh: -2.9; rRNA inh HTS OD600: -12; rRNA inh HTS RFP: -2.0

What do the screens show for `CC(C)C1C(=O)N(Cc2cn(CCC3OCCCO3)nn2)CCS(=O)(=O)N1Cc1ccc(-c2ccc(Cl)cc2)cc1` (configuration not stated)?
FGF22 binding: inactive; rRNA inh HTS: -3; AF4-AF9 inh: 0.6; rRNA inh HTS OD600: 3; rRNA inh HTS RFP: 1.2

Results for O=C(C[C@H]1C=C[C@H](NC(=O)C2CCOCC2)[C@@H](CO)O1)NCC1CC1 ?
FGF22 binding: inactive; rRNA inh HTS: -1; AF4-AF9 inh: -2.8; rRNA inh HTS OD600: 2; rRNA inh HTS RFP: 0.1

How did CNC(=O)C[C@H]1CC[C@H]2[C@@H](COc3ccc(NC(=O)c4ccc(F)c(F)c4)cc3C(=O)N2C)O1 do in these assays?
FGF22 binding: inactive; rRNA inh HTS: 0; AF4-AF9 inh: -0.9; rRNA inh HTS OD600: -1; rRNA inh HTS RFP: -1.5

Results for CC(C)C#Cc1ccc([C@H]2[C@@H](CO)N3C(=O)CN(S(=O)(=O)c4ccccc4)C[C@H]23)cc1 ?
FGF22 binding: inactive; rRNA inh HTS: -9; AF4-AF9 inh: 1.5; rRNA inh HTS OD600: -46; rRNA inh HTS RFP: 26

Results for C[C@@H](NC(=O)[C@@H]1[C@@H](CO)[C@@H]2Cn3c(cccc3=O)[C@H]1N2Cc1cccnc1)c1ccccc1 ?
FGF22 binding: inactive; rRNA inh HTS: 2; AF4-AF9 inh: -1.8; rRNA inh HTS OD600: 16; rRNA inh HTS RFP: -2.3

What do the screens show for `O=C(C[C@H]1CC[C@H](NC(=O)Nc2ccc(C(F)(F)F)cc2)[C@@H](CO)O1)NCc1ccccn1`?
FGF22 binding: inactive; rRNA inh HTS: -2; AF4-AF9 inh: 0.4; rRNA inh HTS OD600: -1; rRNA inh HTS RFP: 0.2

Results for C[C@@H]1CCCCO[C@H](CN(C)S(C)(=O)=O)[C@H](C)CN([C@@H](C)CO)C(=O)c2cc(NC(=O)c3ccncc3)ccc2O1 ?
FGF22 binding: inactive; rRNA inh HTS: 0; AF4-AF9 inh: -21; rRNA inh HTS OD600: 3; rRNA inh HTS RFP: -0.1

Results for CCCNC(=O)N1[C@@H]2CN(C(=O)NC(C)C)c3ccccc3[C@@H]2[C@@H]1CO ?
FGF22 binding: inactive; rRNA inh HTS: 4; AF4-AF9 inh: -2.9; rRNA inh HTS OD600: 15; rRNA inh HTS RFP: -1.6

What do the screens show for `Cc1cccc(S(=O)(=O)N[C@@H]2CC[C@@H](CCNC(=O)c3cnccn3)O[C@H]2CO)c1`?
FGF22 binding: inactive; rRNA inh HTS: 2; AF4-AF9 inh: 1.6; rRNA inh HTS OD600: 0; rRNA inh HTS RFP: -1.9

What do the screens show for `CCCN1[C@H](C(=O)N2CCOCC2)[C@@H](CO)[C@@H]2Cn3c(ccc(/C=C/c4ccccc4)c3=O)[C@@H]21`?
FGF22 binding: inactive; rRNA inh HTS: 0; AF4-AF9 inh: -14; rRNA inh HTS OD600: -10; rRNA inh HTS RFP: 2.5

Results for Cn1c(=O)c2[nH]c(Cc3cccc4ccccc34)nc2n(C)c1=O ?
rRNA inh HTS: 10; AF4-AF9 inh: -0.8; rRNA inh HTS OD600: 4; rRNA inh HTS RFP: 2.2

What do the screens show for `COc1ccc(-c2coc3c(C(=O)NCc4cccc(Cl)c4)cccc23)c(C)c1`?
FGF22 binding: inactive; rRNA inh HTS: 14; AF4-AF9 inh: -4.0; rRNA inh HTS OD600: 9; rRNA inh HTS RFP: -2.5

How did COc1cccc(CCNC(=O)c2cc(COc3ccc(C)c(C)c3)on2)c1OC do in these assays?
FGF22 binding: inactive; rRNA inh HTS: -10; AF4-AF9 inh: -0.2; rRNA inh HTS OD600: -13; rRNA inh HTS RFP: -0.3

Results for CC(C)CC#Cc1ccc2c(c1)O[C@H](CN(C)Cc1cncnc1)[C@H](C)CN([C@H](C)CO)S2(=O)=O ?
FGF22 binding: inactive; rRNA inh HTS: -3; AF4-AF9 inh: 8.0; rRNA inh HTS OD600: -30; rRNA inh HTS RFP: 15

What do the screens show for `C[C@@H]1CN([C@@H](C)CO)C(=O)c2c(c3ccccc3n2C)-c2ccccc2CO[C@H]1CN(C)Cc1ccc(Oc2ccccc2)cc1`?
FGF22 binding: inactive; rRNA inh HTS: 0; AF4-AF9 inh: 1.6; rRNA inh HTS OD600: 2; rRNA inh HTS RFP: -0.4

How did C[C@@H]1CN([C@@H](C)CO)C(=O)c2cc(NC(=O)Nc3ccc4c(c3)OCO4)ccc2O[C@H]1CN(C)S(=O)(=O)c1ccccc1 do in these assays?
FGF22 binding: inactive; rRNA inh HTS: -6; AF4-AF9 inh: 12; rRNA inh HTS OD600: -9; rRNA inh HTS RFP: 0.3

How did CO[C@@H]1CC[C@@H]2CCOc3c(C#N)cccc3C(=O)N(C)[C@H](C)C(=O)N(C)C[C@H]1O2 do in these assays?
FGF22 binding: inactive; rRNA inh HTS: 2; AF4-AF9 inh: 2.9; rRNA inh HTS OD600: 4; rRNA inh HTS RFP: 2.4

What do the screens show for `C[C@@H]1CN([C@H](C)CO)C(=O)c2cccc(N(C)C)c2O[C@H]1CN(C)S(=O)(=O)c1ccc(F)cc1`?
FGF22 binding: inactive; rRNA inh HTS: -5; AF4-AF9 inh: -2.1; rRNA inh HTS OD600: -8; rRNA inh HTS RFP: -0.6

Results for O=C(C[C@@H]1CC[C@@H]2[C@H](COC[C@H](O)CN2Cc2ccncc2)O1)NCc1ccccc1Cl ?
FGF22 binding: inactive; rRNA inh HTS: 0; AF4-AF9 inh: -2.8; rRNA inh HTS OD600: 3; rRNA inh HTS RFP: -4.7

How did CC1CC(=O)NC(=O)N1Cc1ccccc1 (configuration not stated) do in these assays?
FGF22 binding: inactive; rRNA inh HTS: 9; AF4-AF9 inh: inconclusive; rRNA inh HTS OD600: 12; rRNA inh HTS RFP: -0.7

What do the screens show for `COc1ccccc1C#Cc1ccc2c(c1)O[C@H](CN(C)C(C)=O)[C@H](C)CN([C@@H](C)CO)S2(=O)=O`?
FGF22 binding: inactive; rRNA inh HTS: -3; AF4-AF9 inh: -2.8; rRNA inh HTS OD600: -19; rRNA inh HTS RFP: 1.8

What do the screens show for `N#C[C@@H]1[C@H](c2ccc(C#Cc3ccc(F)cc3)cc2)[C@@H](CO)N1C(=O)C1CC1`?
FGF22 binding: inactive; rRNA inh HTS: 1; AF4-AF9 inh: -1.0; rRNA inh HTS OD600: -1; rRNA inh HTS RFP: 2.2

How did CC(O)CN(CC(C)O)c1ccc2c(c1)Cc1cc([N+](=O)[O-])ccc1-2 (configuration not stated) do in these assays?
FGF22 binding: inactive; rRNA inh HTS: -2; AF4-AF9 inh: 1.9; rRNA inh HTS OD600: -3; rRNA inh HTS RFP: 1.8

The final 3 compounds of the section before open the next one.
What do the screens show for `COc1ccccc1C#Cc1ccc2c(c1)O[C@H](CN(C)C(C)=O)[C@H](C)CN([C@@H](C)CO)S2(=O)=O`?
FGF22 binding: inactive; rRNA inh HTS: -3; AF4-AF9 inh: -2.8; rRNA inh HTS OD600: -19; rRNA inh HTS RFP: 1.8

What do the screens show for `N#C[C@@H]1[C@H](c2ccc(C#Cc3ccc(F)cc3)cc2)[C@@H](CO)N1C(=O)C1CC1`?
FGF22 binding: inactive; rRNA inh HTS: 1; AF4-AF9 inh: -1.0; rRNA inh HTS OD600: -1; rRNA inh HTS RFP: 2.2

How did CC(O)CN(CC(C)O)c1ccc2c(c1)Cc1cc([N+](=O)[O-])ccc1-2 (configuration not stated) do in these assays?
FGF22 binding: inactive; rRNA inh HTS: -2; AF4-AF9 inh: 1.9; rRNA inh HTS OD600: -3; rRNA inh HTS RFP: 1.8

Results for C/C=C/c1ccc([C@H]2[C@@H](CO)N(C(=O)c3ccccn3)C23CN(CCC(F)(F)F)C3)cc1 ?
FGF22 binding: inactive; rRNA inh HTS: -2; AF4-AF9 inh: 6.8; rRNA inh HTS OD600: -6; rRNA inh HTS RFP: 2.0

Results for CN(C)CC(=O)N1[C@@H]2c3ccc(C4=CCCCC4)c(=O)n3C[C@@H]2[C@@H](CO)[C@@H]1C(=O)Nc1nccs1 ?
FGF22 binding: inactive; rRNA inh HTS: -2; AF4-AF9 inh: 3.1; rRNA inh HTS OD600: -1; rRNA inh HTS RFP: -0.3

How did CCOC(=O)C1=CCN(S(=O)(=O)c2ccc(C)cc2)C1c1ccc(C)cc1 (configuration not stated) do in these assays?
FGF22 binding: inactive; rRNA inh HTS: -9; AF4-AF9 inh: -1.7; rRNA inh HTS OD600: -39; rRNA inh HTS RFP: -2.0

What do the screens show for `C[C@@H]1NS(=O)(=O)c2cccc(Cl)c2O[C@@H]1c1ccccc1`?
FGF22 binding: inactive; rRNA inh HTS: -40; AF4-AF9 inh: -2.5; rRNA inh HTS OD600: -52; rRNA inh HTS RFP: -13

Results for C[C@@H]1CN([C@@H](C)CO)S(=O)(=O)c2ccc(-c3cccc(C#N)c3)cc2O[C@H]1CN(C)C(=O)C1CC1 ?
FGF22 binding: inactive; rRNA inh HTS: -4; AF4-AF9 inh: 0.5; rRNA inh HTS OD600: -17; rRNA inh HTS RFP: -3.2

What do the screens show for `CO[C@@H]1CN(C)C(=O)c2ccc(NC(C)=O)cc2OC[C@@H](C)N(C(=O)c2ccccn2)C[C@@H]1C`?
FGF22 binding: inactive; rRNA inh HTS: 1; AF4-AF9 inh: -0.5; rRNA inh HTS OD600: 5; rRNA inh HTS RFP: -1.3

What do the screens show for `CCCNC(=O)N(C)C[C@@H]1Oc2ncc(-c3ccc(C(=O)N(C)C)cc3)cc2C(=O)N([C@H](C)CO)C[C@@H]1C`?
FGF22 binding: inactive; rRNA inh HTS: 1; AF4-AF9 inh: -21; rRNA inh HTS OD600: -2; rRNA inh HTS RFP: -1.8

How did COc1ccc(CN(C)C[C@H]2Oc3ccc(NS(=O)(=O)c4cn(C)cn4)cc3C(=O)N([C@@H](C)CO)C[C@@H]2C)cc1 do in these assays?
FGF22 binding: inactive; rRNA inh HTS: 5; AF4-AF9 inh: -3.5; rRNA inh HTS OD600: 6; rRNA inh HTS RFP: 0.6
